gsp ag: gsp mutant agonism; gsp mutant cells, cAMP HTRF, 30 min; control for the full effect not named in the record; Potency, µM (highest dose often 76.9 µM), without a hit: top-dose activation (cAMP increase), hits mostly activators; 340,000 tested, 0.13% active; active = well fitted activation curve with a large enough effect; inconclusive = small, poorly fitted or top-dose-only effect, or another doubt; inactive = no such curve, though single readings can be large or run the other way; cell line not stated here;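 further: phosphodiesterase inhibitor Ro 20-1724 added with compounds to block cAMP breakdown; potency means the concentration at half of the fitted maximal effect; nearly all actives have a fitted effect of over 60% in size; about a fifth of the inactives were tested at one dose only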
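Cells in DMEM/10% FBS with G418 were pretreated with compounds in DMSO plus […] (300 uM stock) for 30 min at 37C. cAMP was measured by HTRF (cAMP-d2 plus anti-cAMP antibody-K) after 30 min at room temperature.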
TRPV1 PAM: enhances activation of the human vanilloid receptor TRPV1; Q8NER1; TRPV1-expressing cells, Fluo-8 calcium influx, capsaicin EC20 potentiation; host cell line not named in the record; control for the full effect not named in the record; potentiation, % at 8.33 µM; 320,000 tested, 0.02% active; AID 540277; active means potentiation above 80%; inconclusive means 30% to 80%; inactive means below 30%; further: 0% is about no effect
Target sequence (Q8NER1 whole entry, looked up): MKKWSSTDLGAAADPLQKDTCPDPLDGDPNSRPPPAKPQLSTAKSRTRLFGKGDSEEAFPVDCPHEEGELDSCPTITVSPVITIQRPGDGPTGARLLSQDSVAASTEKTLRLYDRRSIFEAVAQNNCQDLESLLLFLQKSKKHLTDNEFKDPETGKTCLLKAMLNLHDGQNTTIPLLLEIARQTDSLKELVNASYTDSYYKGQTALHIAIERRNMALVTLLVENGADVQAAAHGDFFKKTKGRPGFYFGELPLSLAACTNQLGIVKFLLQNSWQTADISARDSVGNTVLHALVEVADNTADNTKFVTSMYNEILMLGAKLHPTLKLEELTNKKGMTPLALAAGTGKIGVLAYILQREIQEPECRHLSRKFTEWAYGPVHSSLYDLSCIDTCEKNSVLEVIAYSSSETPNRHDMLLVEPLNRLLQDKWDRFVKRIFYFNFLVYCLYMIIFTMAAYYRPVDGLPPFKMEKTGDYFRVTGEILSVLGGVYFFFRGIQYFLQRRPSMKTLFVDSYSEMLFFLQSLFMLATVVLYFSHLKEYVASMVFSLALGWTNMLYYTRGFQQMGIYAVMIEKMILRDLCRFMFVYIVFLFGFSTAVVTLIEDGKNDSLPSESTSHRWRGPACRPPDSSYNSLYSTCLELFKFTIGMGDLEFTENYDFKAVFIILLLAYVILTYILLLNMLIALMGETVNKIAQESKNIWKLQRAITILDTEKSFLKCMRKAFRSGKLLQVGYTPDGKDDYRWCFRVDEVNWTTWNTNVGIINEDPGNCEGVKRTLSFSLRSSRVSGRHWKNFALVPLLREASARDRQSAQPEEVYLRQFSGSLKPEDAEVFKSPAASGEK
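Cells expressing TRPV1 were dye-loaded with Fluo-8 and read kinetically: 10 s baseline, 3 min after compound (agonist portion), then 2 min after EC20 capsaicin (allosteric enhancer portion). Calcium-bound dye fluorescence at 480/520 nm.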
D2 potentiator: potentiates the human D2 dopamine receptor allosterically | DiscoveRx D2 beta-arrestin cells, luminescence, 90 min; 100% = 57 uM dopamine signal | P14416 | potentiation, % (no concentration beside the values) | 360,000 tested, 0.23% active; active = potentiation of 50% or more; inconclusive = 30% to 50%; inactive = 30% or less;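 further: compound concentration not given in the record; tested on top of an EC20 dose of dopamine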
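PathHunter D2 cells, attached overnight at 37 deg C, received compound in DMSO plus dopamine at EC20 (50 nM final) for 90 min at 37 deg C. Beta-arrestin recruitment was read as luminescence after 1 h with detection reagent at ambient temperature.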
gsp antag: gsp mutant antagonism; 340,000 tested, 0.4% active; gsp-mutant cells, cAMP HTRF, 30 min; control for the full effect not named in the record; AID 624288; Potency, µM (highest dose often 76.9 µM), for inactives: at the highest dose activity change, negative = inhibition, usual class: inhibitors; active = falling curve of any shape with a large fitted effect; inconclusive = falling curve, mostly with a smaller effect; inactive = flat or rising curve; cell line not stated here;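 further: intracellular cAMP measured with PDE inhibitor Ro 20-1724 present during compound exposure; potency means the concentration at half of the fitted maximal effect; on the % scale 0 is the no-effect control and ±100 the full control effect; nearly all actives have a fitted effect of over 65% in size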
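HTRF cAMP read-out (cAMP-d2 plus anti-cAMP antibody-K in lysis buffer, 30 min RT). Before lysis, cells are exposed to compounds with […] for 30 min at 37C in DPBS containing Ca/Mg, BSA and Tween 20.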
Menin MLL FP FL: menin-MLL binding inhibition, fluorescein peptide. FP activity change, % at 61.4 µM. AID 1766. 290,000 tested, under 10 active. Fluorescence polarization, fluorescein-MLL peptide displacement from menin; inconclusive = falling polarisation curve, or a change in total fluorescence; inactive = total fluorescence flat and polarisation flat or rising; no compound was filed as active; the % refers to the polarisation; negative = inhibition;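 further: % of control where 0% means no effect; inhibitors lower the polarisation; unlabelled MLL peptide was the positive control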
ClpP mod: qHTS Assay for Activators of ClpP; ATP-dependent Clp protease proteolytic subunit (Bacillus subtilis (strain 168)), P80244; purified B. subtilis ClpP, FRET peptide cleavage, 20 min; Potency, µM (highest dose often 57.5 µM), for the others: at the highest dose activity change, negative = active; 340,000 tested, 1.9% active; AID 651965, 2013; active = well fitted falling curve with a large enough effect; inconclusive = small, poorly fitted or top-dose-only effect; inactive = no such curve, though single readings can be large or run the other way; further: potency means the concentration at half of the fitted maximal effect; the source files actives as falling curves though it sought activators and does not explain the sign; nearly all actives have a fitted effect of over 65% in size; many hits overshoot -100%
Target sequence (P80244 whole entry, looked up): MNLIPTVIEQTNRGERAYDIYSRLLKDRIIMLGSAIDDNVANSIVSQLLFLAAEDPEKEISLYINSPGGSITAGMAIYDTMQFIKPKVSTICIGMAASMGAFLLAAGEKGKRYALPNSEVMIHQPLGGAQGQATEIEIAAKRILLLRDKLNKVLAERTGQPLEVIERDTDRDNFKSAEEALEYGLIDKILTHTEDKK
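FRET quenching reversal measured ClpP activation: 10 microg/mL B. subtilis ClpP at pH 8 with the FRET-FV decapeptide, read at 430 nm after 320 nm excitation. The 20-min minus 0-min signal was scaled between DMSO/no-enzyme wells and ADEP (5.8 microM final).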
Sfp PPTase inh: inhibitors of Bacillus subtilis Sfp phosphopantetheinyl transferase. AID 1490. Potency, µM, for inactives: max response, negative = inhibition, actives largely listed as inhibitors. Q9F4F7. Biochemical Sfp PPTase activity, qHTS. 310,000 tested, 3.5% active; active means well fitted inhibition curve with a large enough effect; inconclusive means small, poorly fitted or top-dose-only effect, or another doubt; inactive means no such curve, though single readings can be large or run the other way;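 further: the enzyme is Sfp with the accession as filed and its product quenches rhodamine fluorescence; potency means the concentration at half of the fitted maximal effect; 0% = enzyme reaction without inhibitor and -100% = no enzyme wells; top concentration of the series not given in the record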
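Reaction rates are the 30-min fluorescence difference (ex 525, em 598 nm) in wells containing 15 nM Sfp, 5 uM rhodamine-CoA and 12.5 uM BHQ-2-YbbR at pH 7.6 with 10 mM MgCl2.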
* = called active by the depositor; ? = inconclusive; · = no result given; & = joins results of further samples; [ ] = another dose, or the depositor's remark.

Values in the order – gsp ag | TRPV1 PAM | D2 potentiator | gsp antag | Menin MLL FP FL | ClpP mod | Sfp PPTase inh
CC(C)(C)OC(=O)c1c(N)n(CCCN2CCCC2=O)c2nc3ccccc3nc12
→ 0% | -12 | -1 | ? | 7.8 | 38% | -10%
Cc1cc(=O)[nH]c(SCc2cccc(Br)c2)n1
→ 9% | -21 | -22 | -9% | 7.6 | -1.8% | -15%
Cc1ccc(C2=NN(CC(=O)NCc3cccs3)C(=O)CC2)cc1
→ 2% | -29 | -11 | 7% | 0.1 | 4.1% | 6%
COc1ccc2sc(-c3ccc(S(C)(=O)=O)cc3)c(C#CCO)c2c1
→ -1% | · | -4 | -22% | · | 3.8% | ·
CCC/C(O)=C1\C(=O)CC(c2ccccc2)CC1=NCCc1c(C)[nH]c2ccccc12 (stereo unspecified)
→ -12% | 4 | -2 | ? | 0.0 | -1.7% | 11%
Cc1cc(=O)oc(C)c1C(=O)NCCC1=CCCCC1
→ -11% | 8 | -3 | 2% | 0.7 | 0.7% | 0%
COc1ccc(-c2csc(NCCc3nc4cc(Cl)c(Cl)cc4n3CCCO)n2)cc1
→ · | · | -2 | -31% | · | -0.7% | ·
COc1ccccc1COC(=O)c1cccc(S(=O)(=O)N2CCCC2)c1
→ -4%[15.4 µM] | 28 | -28 | ? | · | 1.2% | ·
Cc1sc2nc(SCC(=O)NCc3ccco3)n(Cc3ccccc3)c(=O)c2c1C
→ -7% | -1 | 4 | 0% | 5.1 | 0.9% | ?
O=C(NC1CCC(NC(=O)C2CCCO2)CC1)C1CCCO1 (stereo unspecified)
→ · | 4 | · | · | 0.9 | · | 11%
COc1ccc(CCC(=O)Nc2sc(C(=O)N(C)C)c(C)c2C#N)cc1
→ -9% | 9 | -10 | -4% | -0.2 | -1.5% | 8%
CCOC(=O)C1CCCN(C(=O)CCCn2c(=O)c3cccn3c3cccnc32)C1 (stereo unspecified)
→ 6% | 9 | -16 | 8% | · | ? | 12%
COc1ccc(N2CC(C(=O)Nc3ccccc3C(=O)NCc3ccco3)CC2=O)cc1 (stereo unspecified)
→ -8% | -2 | 8 | -13% | 13 | -1.4% | 22%
Cc1cc(NC(=O)Cn2cnc3sc(C)c(C)c3c2=O)no1
→ -5%[15.4 µM] | · | -5 | 13% | · | -9.6% | ·
CCN(CC)CC(=O)N1N=C(c2cccs2)CC1c1ccco1 (stereo unspecified)
→ -3% | 4 | -18 | 8% | 2.7 | -1.8% | 12%
CSc1nnc(C)c(/C=C/Nc2ccc(F)cc2)n1
→ 8% | -2 | -11 | -8% | ? | 0.7% | -5%
CSc1ccccc1C(=O)N(C)C(c1ccccc1)c1ccccc1
→ ? | 6 | -2 | ? | 4.0 | · | -17%
COc1ccc(-c2csc(N(CCCN3CCOCC3)C(=O)c3ccco3)n2)cc1
→ 1% | 14 | -26 | -12% | -2.9 | -1.3% | -22%
Clc1ccc(-c2[nH]ncc2N=Nc2ccccc2)cc1
→ 0% | ? | 3 | -20% | -4.2 | -0.1% | 3%
CCCCn1c(SCC(=O)c2ccccc2)nc2c1c(=O)[nH]c(=O)n2C
→ -26% | -29 | -20 | -1% | 1.3 | -0.2% | -3%
CCC(C)N(C(=O)COc1ccc(NC(C)=O)cc1)C1CCS(=O)(=O)C1 (stereo unspecified)
→ 16% | 1 | -4 | 11% | 0.8 | -0.6% | 10%
O=C(Nc1nc(-c2ccccc2)cs1)C1COc2ccccc2O1 (stereo unspecified)
→ -26% | 3 | -3 | -1% | 4.6 | 1.6% | -3%
CCn1c(SCC(=O)N2CCCC2)nc2ccccc2c1=O
→ -3% | 13 | 29 | -19% | -2.7 | -3.2% | -5%
COc1ccc(C(=O)OCC(=O)NC2CC2)cc1
→ -2% | · | -9 | · | · | -0.2% | ·
CN1CCN(C(CNC(=O)c2ccc(Br)o2)c2ccc(F)cc2)CC1 (stereo unspecified)
→ -2%[15.4 µM] | 4 | -26 | 5% | · | -1.2% | ·
COc1ccc(S(=O)(=O)Nc2ccccn2)c(C)c1C
→ -20% | 7 | 17 | ? | -1.8 | -6.6% | 7%
CCOc1ccc2nc(NS(=O)(=O)c3ccc(NC(C)=O)cc3)sc2c1
→ ? | -1 | -14 | -8% | 2.8 | 0.9% | 15%
NS(=O)(=O)c1cnccc1NCCc1ccccc1
→ -16% | · | -7 | -1% | · | -4.4% | ·
COc1ccc(N2CSC3=C(C#N)C(c4cccc(OC)c4OC)CC(=O)N3C2)cc1 (stereo unspecified)
→ 22% | -5 | 1 | 0% | 1.4 | -2.8% | 3.5µM*
CNC(=O)COc1coc(CN2CCN(c3ccc(F)cc3)CC2)cc1=O
→ 19% | -9 | -7 | -5% | · | 0.3% | 14%

New compounds follow
Structure | gsp ag | TRPV1 PAM | D2 potentiator | gsp antag | Menin MLL FP FL | ClpP mod | Sfp PPTase inh
CCOC(=O)c1c(/N=C/c2cccc(C)c2O)sc2c1CCN(C)C2 | 8% | -3 | -28 | 8% | 1.7 | -2.2% | -2%
COc1cc(C(=S)N2CCCCC2)ccc1OCC(=O)Nc1ccccc1Cl | ? | 3 | -8 | ? | 2.3 | · | 16%
Cc1nc(C)n(CC(O)COc2ccc(C(=O)c3ccccc3)cc2)n1 (stereo unspecified) | 12% | -5 | 6 | 6% | 1.5 | 3.5% | 22%
Cc1ccccc1OCC(=O)OCC(=O)c1ccc(-c2ccccc2)cc1 | 0% | -2 | -23 | 2% | 4.4 | -3.0% | 5%
Cc1csc(OCC(=O)Nc2ccc(C)c(C)c2)n1 | -17% | -2 | 8 | -6% | 10 | -0.7% | 4%
Cc1cc(C)nc(SCC(=O)c2ccc(F)c(C)c2)n1 | -33%[inhibitor] | -1 | 17 | -4% | 1.1 | -2.7% | -8%
CCc1nn(C(C)C(=O)NC(C)CCc2ccco2)c(=O)c2cc3occc3n12 (stereo unspecified) | 7% | -14 | -7 | -8% | 3.3 | 1.3% | 79µM*
O=[N+]([O-])c1ccc(/C=N/Nc2nc(N3CCCCCC3)nc(N3CCCCCC3)n2)o1 | -6% | 18 | 3 | ? | 1.3 | 1.0% | -12%
CCc1ccc(/C=N/NC(=O)C(=O)NCCCN2CCOCC2)cc1 | 7%[15.4 µM] | -1 | -4 | 2% | 6.3 | 0.1% | 3%
Cc1ccc(NC(=O)CN2CCN(S(=O)(=O)c3cccs3)CC2)cc1S(=O)(=O)N(C)C | -2%[15.4 µM] | -5 | -10 | -4% | 5.0 | 32µM* | -3%
O=C1N(CC(=O)N2CCc3ccccc32)CCN1Cc1ccccc1Cl | 16% | 5 | -9 | -4% | -2.8 | -4.8% | -17%
Cc1ccc(NC(=O)C2CC(=O)N/C(=N/N=C/c3ccco3)S2)cc1C (stereo unspecified) | 0% | -6 | 0 | 2% | 4.0 | -1.6% | -3%
Cc1ccn2c(C(C)O)nnc2c1 (stereo unspecified) | -61%[inhibitor] | · | -8 | · | · | 4.0% | ·
CN(C(=O)c1ccccc1)c1ccc(OCC(=O)NC2CCS(=O)(=O)C2)cc1 (stereo unspecified) | -6% | ? | 2 | 5% | -0.8 | -2.8% | 4%
CCOC(=O)CN1C(=O)C(=O)N(Cc2cccc(C)c2)C1=O | 29% | 20 | -9 | 4% | -2.2 | -0.6% | 4%
CN(C)c1ccc(C(CNC(=O)c2ccccc2Br)c2c[nH]c3ccccc23)cc1 (stereo unspecified) | -21% | 7 | 1 | 10% | 4.2 | 0.7% | -4%
COC(=O)C1=C(C)N(Cc2ccccc2)C(=O)N[C@H]1c1ccco1 | -28% | · | -7 | 4% | 0.6[11.7 µM] | -0.7% | 1%
Cc1ccc(OCCN2CCOCC2)cc1C | 17%[15.4 µM] | 3 | -13 | 11% | 1.9 | -0.6% | -6%
CC(=O)Nc1cc2ccc(OC(C)=O)cc2oc1=O | 1% | 7 | -3 | 8% | 0.4 | 4.4% | 0%
COc1ccc(C)cc1NC(=O)CN1CCCC1c1ccc2c(c1)OCCCO2 (stereo unspecified) | -1% | · | -24 | -7% | · | -2.9% | ·
CCOC(=O)N1CCN(C(=O)CCCCn2c(=S)[nH]c3ccsc3c2=O)CC1 | 65%[15.4 µM] | -1 | 4 | 13% | 0.4 | · | 79µM*
CC(C)Cn1c(=O)[nH]c(=O)c2c(C(F)(F)F)cc(-c3ccccc3)nc21 | -22% | -4 | 9 | 12% | -2.0 | 3.6% | 7%
N#Cc1ccc(C23CC4(C2)[C@H](CN(Cc2ccc(C(F)(F)F)cc2)[C@@H]4c2ccccc2)C3c2ccc(Cl)nc2)cc1 (stereo partly specified) | · | -21 | · | · | 3.9&3.6 | · | 22%&5%
COc1ccc([C@H]2CC(=O)C=C(c3ccc(O)cc3)C2)cc1OC | · | -5 | 10 | 1% | · | 1.5% | ·
O=C(NC1CCCCCC1)C(Cc1ccccc1)n1cccc1 (stereo unspecified) | 2%[15.4 µM] | -18 | -8 | -5% | 5.7 | · | 17%
COc1ccc(S(=O)(=O)N(C)C[C@@H]2OCCCC[C@@H](C)Oc3ccc(NS(=O)(=O)c4cccs4)cc3C(=O)N([C@H](C)CO)C[C@@H]2C)cc1 | 8% | · | -7 | · | · | -2.2% | ·
Cc1nc(NC(=O)c2ccccc2)sc1Cc1ccc2c(c1)OCO2 | 26% | -13 | -3 | ? | 15 | · | -10%

By substructure, the entries above with a CF3 group.
Structure | gsp ag | TRPV1 PAM | D2 potentiator | gsp antag | Menin MLL FP FL | ClpP mod | Sfp PPTase inh
CC(C)Cn1c(=O)[nH]c(=O)c2c(C(F)(F)F)cc(-c3ccccc3)nc21 | -22% | -4 | 9 | 12% | -2.0 | 3.6% | 7%
N#Cc1ccc(C23CC4(C2)[C@H](CN(Cc2ccc(C(F)(F)F)cc2)[C@@H]4c2ccccc2)C3c2ccc(Cl)nc2)cc1 (stereo partly specified) | · | -21 | · | · | 3.9&3.6 | · | 22%&5%

Bioassay records as filed in PubChem.
